High-throughput results deposited in PubChem by PCMD.
Calb biofilm kill = mixtures killing C. albicans biofilm; C. albicans biofilm persisters + clotrimazole, fluorescence viability; primary screen in compound mixtures of four per well; inhibition, % at 7.6 µM; 120,000 tested, 0.02% active; AID 1242;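 active means inhibition above 30.3% in the primary screen of four-compound pools, then above 30% when the compound was retested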;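 further: compounds exposed to preformed 24 h biofilms for 48 h; the number belongs to the whole pool; some results filed as inactive read as strong as hits; inactives centre near 12; 0% = biofilm with clotrimazole alone and 100% = kill control; retested singly at about 60 µM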
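Test system: C. albicans biofilms. Buffer or medium: RPMI/MOPS medium, pH 7.0. Timing: 48 h compound exposure at 37 °C. Technique: Alamar Blue fluorescence. Evaluation: percent inhibition of biofilm viability.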
Active calls of the source: *. A portion of the library. The share of hits here may be higher or lower than overall.

SMILES	Calb biofilm kill
Cc1nn(-c2ccccc2)c(Cl)c1/C=N/NC(=O)c1cccnc1	18
Cc1ccc2sc(N(CCCN(C)C)C(=O)c3ccc(S(=O)(=O)N(C)C)cc3)nc2c1C	11
CSCC[C@H](NC(=O)C(C)(C)Oc1ccc(Cl)cc1)c1nc2ccccc2[nH]1	-4
Cc1ccc(N2C(=O)C3C4CC(=O)C(c5ccccc54)C3C2=O)cc1C (stereo not given)	25
CNc1nc(NC#N)nc(SC)n1	0
CCCCCCCCCCCCCCCC[n+]1cccc(C(=O)N(CC)CC)c1	5
N#C/C(=C\c1c(N2CCCCC2)nc2ccccn2c1=O)C(=O)NC1CCS(=O)(=O)C1 (stereo not given)	11
O=C(NCCNCc1cccs1)c1ccccc1F	12
Cc1cccc(/C=N/NC(=O)Cc2cccs2)c1	29
C=CCN1c2ccccc2[C@]23C[C@@H](C(=O)OC)N(C(=O)c4ccc(Br)cc4)C2=NC(C(=O)OC)=C(C(=O)OC)[C@H]13	9
Nc1ncnc(Oc2cccc3cccnc23)c1[N+](=O)[O-]	12
COc1cc2c(cc1C1NC(=S)NC(C)=C1C(N)=O)CCCC2 (stereo not given)	3
COc1ccc(C2CC(c3ccccc3)=NN2C(=O)COC(=O)C2CC2)cc1 (stereo not given)	11
Cc1ccc(COCCN2CCN(S(=O)(=O)c3ccccc3)CCC2=O)cc1	21
O=C(O)CCCN=CC1=C(O)CNC1=O	15
COC(=O)c1ccc(CSc2nnc3n(Cc4ccccc4OC)c(=O)c4ccccc4n23)o1	6
N#CC(C(=O)NC1CCCCC1)=C1CCCCC1	16
CCSc1nc(O)cc(=O)[nH]1	26
COc1cc2c(cc1OC)C(C)N(C(C)=O)CC2 (stereo not given)	16
CCC(=O)NCc1c(C)c(C)n(Cc2ccccc2)c1-n1cccc1	11
Cc1nn(Cc2ccccc2)c(C)c1C(=O)NCCN1C(=O)S/C(=C\c2ccc(F)cc2)C1=O	7
Cc1cc(Cl)c(S(=O)(=O)N2CCCC2)cc1OCC(N)=O	10
O=C(O)c1ccc(N(c2ccccc2)c2ccccc2)cc1	12
Fc1ccc(-c2csc(/C=C/c3ccc4c(c3)OCO4)n2)cc1	4
CN(Cc1cccs1)C(=O)/C=C/c1ccccc1[N+](=O)[O-]	12
COc1ccc2c(c1OC)C(=O)N(c1ccc(C)c(C)c1)C2=O	16
CCn1c(SCc2ccc(Cl)cc2)nnc1-c1ccccc1	17
CCc1noc(C)c1C(=O)N1CCCC(C(=O)c2ccc(OC)c(F)c2)C1 (stereo not given)	16
CCOP(=O)(c1ccccc1)c1nc(-c2ccccc2Cl)oc1N1CCCCC1 (stereo not given)	11
COc1ccccc1N(C)S(=O)(=O)c1ccc(Cl)c(C(=O)OCc2c(C)noc2C)c1	17
O=C(O)C(Cc1c[nH]c2ccccc12)N1C(=O)C2C3c4ccccc4C(c4ccccc43)C2C1=O (stereo not given)	0
CC1(C)CC(=O)C2=C(C1)OC(N)=C(C#N)C2c1cn(-c2ccccc2)nc1-c1ccc(F)cc1 (stereo not given)	23
Cn1ccnc1C(=O)C1CCCN(Cc2cn[nH]c2-c2ccc(-c3ccccc3)cc2)C1 (stereo not given)	9
CC(C)(C(=O)O)n1cncn1	18
COc1ccc(Br)c2c1C(=O)CC2	1
Cc1ccc(-c2nc3cccnc3s2)cc1NS(=O)(=O)c1cccs1	16

Shown as a markdown table: part of the list above.
| Molecule | Calb biofilm kill |
| --- | --- |
| COc1ccc2c(c1OC)C(=O)N(c1ccc(C)c(C)c1)C2=O | 16 |
| CCn1c(SCc2ccc(Cl)cc2)nnc1-c1ccccc1 | 17 |

(more compounds)
SMILES	Calb biofilm kill
O=C(O)c1ccc(-c2ncc[nH]2)cc1	-8
Cc1ccc(OCCNc2cc(N3CCN(CCO)CC3)ccc2[N+](=O)[O-])cc1C	4
CC(Oc1ccc(Cl)cc1Cl)c1ccnc2nc(N3CCOCC3)nn12 (stereo not given)	-9
CC(NC(=O)COC(=O)c1ccc(N(C)C)cc1)c1ccccc1 (stereo not given)	12
CCc1cc2c(=O)[nH]c(COC)nc2s1	11
CCC(=O)Nc1cccc2c1C(=O)N(C)C2=O	13
C=CCn1cc(-c2cccc(C(F)(F)F)c2)cc(C#N)c1=O	11
CCC(C)/C(C)=N/NC(=O)c1ccc(CSc2nc3ccccc3s2)cc1 (stereo not given)	15
O=C(COC(=O)CCc1ccccc1)Nc1ccccc1OC(F)F	7
CCCc1nnc(SCC(=O)N2CCOCC2)n1CC1CCCO1 (stereo not given)	15
O=C(Nc1ccccc1)c1ccc(NCC2CCCO2)c([N+](=O)[O-])c1 (stereo not given)	10
CCOC(=O)CSc1nc(N)c(C#N)cc1C#N	-3
O=C(CN1CCN(Cc2ccccc2Cl)CC1)N=Nc1c(O)[nH]c2ccccc12	3
C/C(=N\OCC(=O)Nn1c(C)nc2ccccc2c1=O)c1cccs1	16
Cc1ccc(-c2nnc(SCC(=O)N/N=C/c3ccccc3C(=O)O)n2-c2ccc(C)cc2)cc1	29
Cc1c(/C=N/NC(=O)c2ccc(Br)o2)cnn1C	11
Cc1nc(N=C(N)N)nc2c(C)cccc12	9
CCC(=O)NC(=S)Nc1ccc(NC(=O)c2ccco2)c(Cl)c1	3
CCOC(=O)C(C)(C)n1nnc(-c2ccc([N+](=O)[O-])cc2)n1	9
O=C(CSc1ncnc2c1cnn2-c1ccc(F)cc1)NCc1ccc2c(c1)OCO2	18
N/C(Cc1ccc(Cl)cc1Cl)=N\OC(=O)c1ccc(Br)o1	14
CN(C)C(=O)CCC(=O)N1CCCC(C(=O)c2ccc3c4c(cccc24)CC3)C1 (stereo not given)	15
O=C(NCc1ccc(Cl)cc1)C1CCN(S(=O)(=O)c2ccccc2)CC1	6
N=C1SCC(=O)N1/N=C/c1ccccc1	-2
NC(=O)NOCc1c(Cl)cccc1Cl	10
Cc1cc(C)n2nc(SCc3nnc(-c4ccc(F)cc4)o3)nc2n1	5
COCCNC(=O)CN(C(=O)Cn1nnc2ccccc21)c1ccc(C)cc1	21
S=C(Nc1ccccc1)N1CCN(Cc2ccccc2)CC1	19
O=C(c1ccccc1)c1c[nH]c(C(=O)NNc2cccc(Cl)n2)c1	2
CC1(C)CC(=O)C(N=Nc2c(F)cccc2F)=C(O)C1	18
C=CCn1c(=NC(=O)c2ccc(S(=O)(=O)N3CCCC3)cc2)sc2cc(NC(C)=O)ccc21	10
CCCc1c(C(=O)Nc2ccc(F)cc2F)cnn1-c1ccccc1	18
COCc1cc(C)n(CC(=O)N2CCCC2)c(=O)c1C#N	12
NC(=O)COC(=O)c1ccc(NS(=O)(=O)c2ccc3c(c2)OCCO3)cc1	18
O=C(N/N=C/c1c(F)c(F)c(F)c(F)c1F)c1cccc(S(=O)(=O)N2CCOCC2)c1	15
CC(C)CN(C(=O)CN1CCc2ccccc21)c1c(N)n(CC(C)C)c(=O)[nH]c1=O	6
C=CCOc1ccc(/C=N/NC(=O)CN(c2cc(Cl)ccc2OC)S(=O)(=O)c2ccc(C)c([N+](=O)[O-])c2)cc1	5
COc1cc(C2C(Oc3ccccc3C)C(=O)N2Cc2ccc(F)cc2)cc(OC)c1OC (stereo not given)	19
COc1ccc(C(=O)n2nc(C#N)c(C#N)c2N)cc1	13
CCNc1nc(SC(C)C(=O)OC)nc(N(C)C)n1 (stereo not given)	10
Cc1ccc(C2NC(c3ccc(C)cc3)C([N+](=O)[O-])C(C)(C)C2[N+](=O)[O-])cc1 (stereo not given)	1
COc1ccc(Nc2n[nH]c(N)c2C(N)=O)cc1	28
O=C(NCC1CCCO1)C(c1cccs1)N(Cc1ccccc1Cl)C(=O)c1ccc(-c2ccccc2)[nH]1 (stereo not given)	-3
Cc1nc2nc(SCC(=O)c3ccccc3)[nH]c2cc1Br	21
CCOc1ccc(Br)cc1S(=O)(=O)Nc1cccc(S(=O)(=O)NC2=NCCC2)c1	9
Cc1ccnc(NC(c2ccncc2)c2c(C)[nH]c3ccccc23)c1 (stereo not given)	15
Nc1cc(=O)[nH]n1C1CCCCC1	6
CCOC(=O)c1cc2cc3ccccc3cc2[nH]1	24

Some of these compounds in order of formula weight, lowest first.
SMILES	Calb biofilm kill
CCNc1nc(SC(C)C(=O)OC)nc(N(C)C)n1 (stereo not given)	10
Cc1nc2nc(SCC(=O)c3ccccc3)[nH]c2cc1Br	21
COc1cc(C2C(Oc3ccccc3C)C(=O)N2Cc2ccc(F)cc2)cc(OC)c1OC (stereo not given)	19

Remaining list, next part:
SMILES	Calb biofilm kill
COc1ccc(CN2C(=O)Cc3c2nc(N)c2c(N)nc(N4CCCCC4)c(C#N)c32)cc1	16
CCOc1ccc(C(=O)NC(=S)Nc2ccc(N3CCOCC3)c(Cl)c2)cc1[N+](=O)[O-]	-8
CC[n+]1c(/C=C(\C)Nc2ccccc2)sc2ccccc21	14
Cc1cccc(C(=O)NCC(=O)OCC(=O)N2CCc3ccccc32)c1	15
CCOc1ccc(CN(C)CC(=O)NNC(=O)c2ccc(Cl)cc2)cc1OC	6
CC(CN1CCOCC1)OC(=O)C1COc2ccccc2O1 (stereo not given)	27
COc1ccc(N/N=C(\C#N)C(=N)N2CCCCC2)cc1	0
COc1ccc(N=N/C(=C\O)C(=O)c2cccs2)cc1	15
COc1ccccc1C(=O)NCC(=O)N/N=C/c1cn[nH]c1-c1ccccc1	13
CC(C1CC1)N(Cc1ccccc1)C(=S)Nc1ccccc1Cl (stereo not given)	5
O=C(c1cc(C2CC2)nc2ccccc12)N1N=C(C(F)F)CC1(O)C(F)F (stereo not given)	8
COc1ccc(/C=C(/NC(=O)c2cccc([N+](=O)[O-])c2)C(=O)O)cc1OC	10
COc1ccc(NC(=S)Nc2ccc(OCc3ccccc3)cc2)cc1OC	3
Cc1[nH]c2ccccc2c1C(=O)C(=O)NCCC1=CCCCC1	10
COc1ccc(-c2ccc(C#N)c(SCC(=O)NCc3ccco3)n2)cc1OC	14
Cc1ccc(-c2csc(NC(=O)C[n+]3cc(-c4ccccc4)n4c3CCC4)n2)cc1	0
Nc1n[nH]c(C2CC2)c1N=Nc1ccc(Cl)cc1	29
CC(=O)Nc1nnc(CCS(=O)(=O)c2ccc(Cl)cc2)s1	12
Cc1ccc(/C=C/C(=O)O)cc1S(=O)(=O)N1CCCc2ccccc21	27
COc1ccc(Nc2nc(N)nc(CCl)n2)cc1	14
Cc1nc(NC(=O)CSc2nnc(-c3ccccc3)c(-c3ccccc3)n2)c(Cl)cc1Cl	19
Cc1ccc(S(=O)(=O)NNC(=O)C(=O)NNS(=O)(=O)c2ccc(C)cc2)cc1	-24
CCc1ccc2[nH]c(=O)c(CN(CCO)C(=O)NCc3ccccc3)cc2c1	9
O=C(/C=C/c1ccccc1)Nc1ccc(N2CCCCC2)cc1	2
Cc1occc1-c1nnc(SCC(=O)NC(C)(C)C)n1CC(C)C	3
CCOc1ccc2[nH]cc(S(=O)(=O)c3ccc(C)cc3)c(=O)c2c1	14
Cc1cc[n+](-c2[nH]c(=O)sc2/C=N/NC(=O)c2ccccc2[O-])cc1C	17
O=C(COc1ccc2ccccc2c1)Nc1ccncc1	20
COc1ccc(Cl)cc1NC(=O)COC(=O)CCCN1C(=O)c2ccccc2C1=O	11
Cc1ccc(S(=O)(=O)NCc2ccc(C(=O)N3CCCC3)cc2)cc1	12
COC(=O)N/N=C\c1cccc(OC(=O)c2cccs2)c1	15
O=C1CCC(=O)N1CC(O)COc1ccccc1 (stereo not given)	12
O=C(CN1c2ccccc2Sc2ccccc21)NNC(=S)Nc1ccc(Cl)cc1	7
O=C(NNC(=O)c1cccs1)c1ccco1	12
CC(=O)Nc1nc(C)c(CCC2OCCO2)c(=O)[nH]1	7
Cc1ccc(-c2nn3c(C)nnc3c3ccccc23)cc1S(=O)(=O)NC(C)(C)CO	9

5 compounds picked at random from those above, as already listed:
SMILES	Calb biofilm kill
CCCc1c(C(=O)Nc2ccc(F)cc2F)cnn1-c1ccccc1	18
O=C(NCCNCc1cccs1)c1ccccc1F	12
O=C(O)CCCN=CC1=C(O)CNC1=O	15
CCOC(=O)C(C)(C)n1nnc(-c2ccc([N+](=O)[O-])cc2)n1	9
CCOC(=O)CSc1nc(N)c(C#N)cc1C#N	-3

Next part
SMILES	Calb biofilm kill
O=C(C[n+]1cc(-c2ccc(Cl)cc2)n2c1CCC2)Nc1nc(-c2ccccc2)cs1	20
Cc1cccc(C(=O)N2CCN(c3ccc(N4CCOCC4)nn3)CC2)c1	27
CN(C)CCCNC(=O)/C=C/c1ccc2c(c1)OCO2	19
Cn1c(=O)c2c(nc(N3CCN(C(=O)c4ccco4)CC3)n2CCSc2ncccn2)n(C)c1=O	1
CCOC(=O)C(C)Sc1nnc(NC(=O)c2cccc([N+](=O)[O-])c2C)s1 (stereo not given)	19
Cc1ccc(N2NC(=O)/C(=C\c3cc4c(cc3[N+](=O)[O-])OCO4)C2=O)cc1C	9
CN(C(=O)CCc1nnc(CCCCc2ccccc2)o1)C1CC(C)(C)NC(C)(C)C1	20
CC(=O)Nc1ccc(-c2cc(-c3ccccc3)nc(-c3ccccc3)n2)cc1	13
O=C(COc1ccc(Cl)cc1[N+](=O)[O-])N1CCCCC1	-4
CN(C)CCCO/N=C(\c1ccccc1)c1ccncc1	7
NNC(=O)CC(=O)NC1(Cc2ccc(O)cc2)CCCCC1	17
COc1ccc(N2C(=O)c3ccccc3NC2c2ccc(OC)c(Cn3cc([N+](=O)[O-])cn3)c2)cc1 (stereo not given)	20
C=C1SC(=Nc2ccccc2Cl)N(C(=O)c2sc3ccccc3c2Cl)C1(C)C	21
CCOCCCn1c(=NC(=O)c2ccco2)c(C(=O)OCC)cc2c(=O)n3cccc(C)c3nc21	10
O=C(O)/C=C\C(=O)Nc1ccc(Oc2ccc(Br)cc2)cc1	10

Rewritten in markdown: 3 of the compounds above
| SMILES | Calb biofilm kill |
| --- | --- |
| COc1ccc(N2C(=O)c3ccccc3NC2c2ccc(OC)c(Cn3cc([N+](=O)[O-])cn3)c2)cc1 (stereo not given) | 20 |
| C=C1SC(=Nc2ccccc2Cl)N(C(=O)c2sc3ccccc3c2Cl)C1(C)C | 21 |
| CCOCCCn1c(=NC(=O)c2ccco2)c(C(=O)OCC)cc2c(=O)n3cccc(C)c3nc21 | 10 |
